H5N1 CPE = MDCK cell protection from H5N1 avian flu | cytopathic effect, luminescence, 72 h; hits give high values; no value below 0 was filed and about half of the inactive calls have no number; reference of the scale not given here | inhibition, % at 50 µM | 96,000 tested, 0.07% active; in the data active = inhibition above about 25%
Numbers without * were called inactive; i = inactive. An excerpt; the hit share may differ from the screen's.

SMILES	H5N1 CPE
Cc1nc2c(C(=O)NCCc3ccccc3)c[nH]n2c(=O)c1Cl	i
CC(=O)NS(=O)(=O)c1ccc(NS(=O)(=O)c2ccc(F)cc2)cc1	i
O=C(NCc1ccco1)C1CCC(N2C(=O)c3ccccc3C2=O)CC1 (stereo unspecified)	i
O=C(Nc1ccc(F)cc1)N1CCC(c2nc3c(nnn3Cc3cccc(Cl)c3)c(=O)[nH]2)CC1	i
O=C(c1c(F)c(F)c(F)c(F)c1F)N1CCN(c2cccc(C(F)(F)F)c2)CC1	i
CCOC(=O)C(=CNc1ncccc1C)C(=O)OCC	i
Cc1ccc(CNC(=O)CCn2nc(-c3ccc(Cl)cc3)ccc2=O)cc1	2.3
Cc1cn2c(-c3ccncc3)nnc2s1	7.6
O=C(CCc1nc(-c2ccccc2F)no1)NC1CCN(Cc2ccccc2)CC1	i
CC1CCCCN1C(=O)CSc1ccc(-c2ccc(F)cc2)nn1 (stereo unspecified)	1.6
CCOc1ccc(C(N)=O)cc1OC	i
Nc1nc(CN2CCN(c3ccccn3)CC2)nc(Nc2ccc(F)cc2)n1	0.2
COc1ccc(N2CCN(CCCNS(=O)(=O)c3ccc4c(c3)oc(=O)n4C)CC2)cc1	i
COc1ccc(N(Cc2ccccc2)C(=O)c2ccccc2[N+](=O)[O-])cc1	1.6
c1cncc(-c2nc3ccccn3c2Nc2ccc3c(c2)OCCO3)c1	i

5 consecutive entries already listed, quoted:
SMILES	H5N1 CPE
CCOc1ccc(C(N)=O)cc1OC	i
Nc1nc(CN2CCN(c3ccccn3)CC2)nc(Nc2ccc(F)cc2)n1	0.2
COc1ccc(N2CCN(CCCNS(=O)(=O)c3ccc4c(c3)oc(=O)n4C)CC2)cc1	i
COc1ccc(N(Cc2ccccc2)C(=O)c2ccccc2[N+](=O)[O-])cc1	1.6
c1cncc(-c2nc3ccccn3c2Nc2ccc3c(c2)OCCO3)c1	i

New compounds follow
SMILES	H5N1 CPE
CCOCCCNC(=O)C(NC(=O)c1cnccn1)c1ccc(OC)cc1 (stereo unspecified)	i
CC(=O)Nc1c2c(nn1-c1cccc(Cl)c1)CS(=O)C2 (stereo unspecified)	i
COC(=O)c1oc2ccc(Cl)cc2c1-n1cccc1	i
CCOc1ccc(-c2nnc3sc(COc4ccc(Cl)cc4)nn23)cc1	0.3
N#CCSc1nc2scc(-c3cccs3)c2c(=O)n1CCc1ccccc1	i
Cc1ccc(CC2SC(=O)NC2=O)cc1Cl (stereo unspecified)	i
COC(=O)C(C)Oc1ccc(=O)[nH]n1 (stereo unspecified)	i
Fc1ccc(Oc2nccc(-c3ccc(Cl)cc3)n2)cc1	0.4
CC(=O)NC(Cc1cnc[nH]1)C(=O)O (stereo unspecified)	i
COc1ccccc1N1CCN(C(=O)CCNS(=O)(=O)c2ccc(Br)s2)CC1	1.3
COc1ccc(N(CC(=O)O)S(=O)(=O)c2c(C)n[nH]c2C)cc1	0.2
O=C(CCN1C(=O)C2C3C=CC(C3)C2C1=O)N1CCN(c2ccc(F)cc2)CC1 (stereo unspecified)	0.5
COc1ccc(C2CC(c3ccccc3)n3nnnc3N2)cc1 (stereo unspecified)	0.8
CCCOc1ccc(C2(C(=O)O)CCCC2)cc1	i
C/C(=C\c1ccco1)C1C(C#N)=C(N)OC2=C1C(=O)CC(C)(C)C2 (stereo unspecified)	0.0
CS(=O)(=O)Nc1ccc(S(=O)(=O)N2CCOCC2)cc1	0.1
COc1[nH]c(/N=C/c2ccccc2)c(C#N)c1C#N	0.5
CCOc1cccc(NC(=O)C(Cc2cccs2)c2nn[nH]n2)c1 (stereo unspecified)	i
CCOc1cc(/C=N/NC(=O)COc2ccc(Cl)cc2)ccc1OS(=O)(=O)c1ccccc1	i
CC(Cc1ccccc1Sc1ccc(O)cc1)N(C)C (stereo unspecified)	i
COc1ccc(CNC(=O)C2CCCN(S(=O)(=O)c3c(C)nn(C)c3C)C2)cc1 (stereo unspecified)	i
CCN(CC)S(=O)(=O)c1ccc(F)cc1	0.4
OCCN(Cc1ccccc1)Cc1ccc(Cl)cc1Cl	0.6
CC(Oc1ccc(Cl)cc1)c1ccnn1S(=O)(=O)c1ccccc1 (stereo unspecified)	3.2
CNC(=O)c1sc(-c2ccccc2)nc1C	i
CN1C(=O)C2(C(C#N)=C(N)N(c3cc(Cl)cc(Cl)c3)C3=C2C(=O)CC(C)(C)C3)c2ccccc21 (stereo unspecified)	3.8
CCS(=O)(=O)NCCc1csc(-c2cccnc2)n1	i
CCOC(=O)C1CCN(Cc2ccc(O)c(OC)c2)CC1	i
CCOC(=O)CSc1nc2ccccc2c(=O)n1CC1CCCO1 (stereo unspecified)	1.3
CC(C)CN1C(=O)NC(NC(=O)c2cccnc2)(C(F)(F)F)C1=O (stereo unspecified)	i
CCOC(=O)C1CCCN(C(=O)c2cc3c(-c4cccc(OC)c4)nn(C)c3s2)C1 (stereo unspecified)	i
O=C(CCCCn1c(=O)c2ccccc2n(CC(=O)NC2CCCC2)c1=O)NCc1ccco1	0.5
CC(=O)NC(=S)Nc1ccc(NC(=O)COc2ccc(Cl)cc2)cc1	i
O=C(CCCNC(=O)/C(=C\c1ccc(F)cc1)NC(=O)c1ccccc1)OCc1ccccc1	i
CC1CCN(C2(O)C(=O)Nc3ccc([N+](=O)[O-])cc32)CC1 (stereo unspecified)	1.2
CN1CC(=O)N(CC(=O)Nc2ccc(N(C)C)cc2)c2ccccc2C1=O	0.1
COc1ccc(/C(N)=N/OC(=O)c2ccc(C)c([N+](=O)[O-])c2)cc1	0.1
Brc1cccc(-c2nc(-c3ccncc3)no2)c1	2.2
COc1cnc(-c2ccccn2)nc1Sc1ccc(Cl)cc1	i
Cc1cc(C)nc(/N=C(/NC(=O)c2ccccc2)Nc2ccccc2)n1	0.8
CCOC(=O)c1sc2nc(CC(=O)OC)nc(NCc3ccc(Cl)cc3)c2c1C	i
Cn1ccs/c1=N\S(=O)(=O)c1ccc(F)cc1	0.3
Cc1ccc(-c2csc3n[nH]c(=S)n23)cc1	1.1
O=C(CNC(=O)c1cccs1)NCC(=O)OCc1ccccc1Cl	0.7
C=C1c2ccccc2NC(=O)N1c1ccc(C)cc1	i
CC(C)CCn1nc(C(=O)OC(C)C(=O)NC(N)=O)c2ccccc2c1=O (stereo unspecified)	i
COc1cc(S(=O)(=O)Nc2ccccc2)ccc1NC=O	i
CCN(CC)CCCN=C(C)c1c(O)n(-c2ccc(C)cc2)c(=O)[nH]c1=O	i
CNc1oc(-c2cccs2)nc1C#N	i
Cc1ccc(CN2C3=NCCCN3c3ccccc32)cc1	0.2
COC(=O)c1nn(-c2ccccc2)c(-c2ccccc2)c1C(=O)c1ccccc1	i
Cc1ccc2c(C(=O)CN3CCC4(CC3)OCCO4)c(C)[nH]c2c1	0.4
O=C(O)c1ccc(COc2c(F)c(F)c(F)c(F)c2F)o1	i
CCn1c(NC(=O)c2ccc(F)cc2)c2ccccc2nc1=O	i
COc1ccc(-c2nnc(SC(C)C(=O)Nc3nccs3)n2-c2ccccc2)cc1OC (stereo unspecified)	i
CSc1ccccc1NC(=O)Nc1ccccc1	i
Cc1c(C(=O)N(C)Cc2ccccc2)oc2ccc(S(=O)(=O)N3CCCC3)cc12	i
COc1cccc(NC(=O)C(C)Oc2ccccc2)c1 (stereo unspecified)	i
Nc1ncnc2nc(N3CCN(C(=O)c4ccccc4)CC3)[nH]c12	i
COCc1cc(C)nc2sc(C(=O)OC)c(N)c12	2.8

More compounds:
SMILES	H5N1 CPE
CCOC(=O)N1C(=O)c2cc(OC)ccc2S1(=O)=O	0.1
O=C(C1CCCN(S(=O)(=O)c2cccc3nsnc23)C1)N1CCN(c2ccccn2)CC1 (stereo unspecified)	0.5
C(=N\Nc1nc(N2CCOCC2)nc(N2CCOCC2)n1)/c1cccnc1	i
Cc1cc(C)n(CCO)c(=O)n1	i
Cc1cc(F)ccc1S(=O)(=O)Nc1ccccc1C(=O)Nc1ccccc1N1CCOCC1	i
Cc1ccc2c(c1)C1CN(C)CCC1N2C(=O)COc1ccc(S(=O)(=O)N2CCOCC2)cc1 (stereo unspecified)	i
COc1cccc2c(=O)n(CC(=O)N3CCC(C)CC3)ccc12	1.6
COc1cc2c(cc1OC)CN(C(=O)C(C)(C)C)CC2	0.2
Cc1ccc(NCc2nnc(SCC(=O)c3ccc4c(c3)OCCO4)o2)c(C)c1	0.8
CC(C)c1ccc(S(=O)(=O)N2CCN(CCC(=O)Nc3ccc(N(C)C)cc3)CC2)cc1	i
CN(C)CCN1C(=O)C(O)=C(C(=O)c2cc3ccccc3o2)C1c1cccc(Br)c1 (stereo unspecified)	i
C=CCn1c(O)c(C(CC)=NCCC2=CCCCC2)c(=O)[nH]c1=O	2.6
CC[C@@H](C)[C@H](NC(=O)OC(C)(C)C)c1nnc(S(=O)(=O)Cc2cc(C)ccc2C)o1	i
CCCNC(=O)c1ccc(SC)cc1OC	i
COc1ccc[nH]c1=O	0.8
CCOC(=O)CC1C(C(=O)OCC)ON2OC(C(=O)OC)C(C(=O)OCC)C12 (stereo unspecified)	0.3
O=C(c1ccc(Br)cc1)N1CCCC1	0.5
COC(=O)CC(NC(=O)c1ccc(C)cc1)c1ccc2c(c1)OCO2 (stereo unspecified)	i
CCOC(=O)C(Cc1c[nH]c2ccccc12)NC(=O)CNC(C)=O (stereo unspecified)	0.5
CCOC(=O)c1[nH]nc(-c2cc(CC)c(O)cc2O)c1-c1cscn1	0.3
Cc1c(/C=N/NC(=O)c2sc3ccccc3c2Cl)cnn1C	i
CC1CN(c2nnnn2-c2ccccc2)CC(C)O1 (stereo unspecified)	1.6
O=C(Cn1[nH]c(=O)c2ccccc2c1=O)NC1CCN(Cc2ccccc2)CC1	i
COC(=O)c1[nH]c2ccccc2c1NC(=O)Oc1ccccc1	0.8
CCCC(=O)Nc1nc2ccc(OCC)cc2s1	2.0
Nc1nc(Cn2nnc(-c3ccccc3Cl)n2)nc(N2CCOCC2)n1	0.7
C=CCNC(=S)N1CCN(CCN=CC2=C(O)CC(c3cccs3)CC2=O)CC1 (stereo unspecified)	0.1
CC(C)CC(=O)Nc1ccc(OCC(=O)O)cc1	1.5
CCOC(=O)c1ccccc1NC1OC(=O)c2ccccc21 (stereo unspecified)	i
COc1ccc(-c2occ(C(=O)O)c2C(=O)O)cc1	i
O=C(N/C(=C/c1ccc(Cl)cc1)c1nc2ccccc2[nH]1)c1ccco1	0.5
COc1cccc(Nc2nc(-c3sc(NC(=O)c4ccco4)nc3C)cs2)c1	i
CCc1ccc(Nc2nc(N)nc(CSc3nnnn3-c3ccccc3)n2)cc1	0.3
O=C(O/N=C/C1=C(Cl)c2ccccc2CC1)c1ccc(F)cc1	i
CCn1c(-c2ccc(F)cc2)n[nH]c1=S	0.6
CCOC(=O)CSC1=NC(=O)/C(=C\c2ccc(OC(C)=O)cc2)S1	1.4
COC(=O)c1sc(NC(=O)COc2ccccc2OC)nc1C	0.8
CCOC(=O)c1[nH]c2ccc(OC)cc2c1NC(=O)OC	i
CCCc1nc(SCC(=O)NNC(=O)C2CCCCC2)c2ccccc2n1	i
CCOC(=O)C1CCCN(C(=O)c2ccc(CNc3c(N4CCC(C)CC4)c(=O)c3=O)cc2)C1 (stereo unspecified)	0.6
CC(=O)c1cccc(NS(=O)(=O)c2ccc(N/C=C\C(=O)c3ccc(C)cc3)cc2)c1	i
CC(=O)N1c2ccccc2NC2=C(C(=O)CCC2)C1c1cccnc1 (stereo unspecified)	i
Cc1nn(-c2ccc(F)cc2)c2sc(C(=O)OCC(=O)N3CCC(C)CC3)cc12	1.9
COc1ccccc1Nc1ncc(-c2cccs2)s1	i
CCN(CCCNC(=O)CCNC(=O)Cn1cnc2ccccc2c1=O)c1cccc(C)c1	i
Cc1ccc(NC(=O)N2CCC(c3nc4c(nnn4Cc4c(F)cccc4Cl)c(=O)[nH]3)CC2)cc1	1.1
CC(OC(=O)CNC(=O)C12CC3CC(CC(C3)C1)C2)C(=O)Nc1ccc(N2CCOCC2)cc1 (stereo unspecified)	1.0
CSc1ccc(/C=C/C(=O)c2ccc(NC(C)=O)cc2)cc1	0.6
CCOC(=O)N1CCN(C(=O)c2ccc(NC(C)=O)cc2)CC1	i
CC(=O)Nc1ccc(Cl)cc1C(=O)O	i
CC(=O)Nc1ccc(/C(C)=N/NS(=O)(=O)c2ccc(C)cc2)cc1	i
CC(C)c1nc(N2CCOCC2)c(C#N)c2c1COC(C)(C)C2	2.9
COc1ccccc1NC(=O)c1c(NC(=O)c2ccco2)sc2c1CCC2	i
NNC(=O)C1CCCn2c1nc1sc3c(c1c2=O)CCCC3 (stereo unspecified)	0.6
CCC(=O)Nc1ccccc1C(=O)N1CCCC1	i
CCC(=O)N1CCN(c2cc(C)ccc2C)CC1	0.6
O=C(NCCCn1ccnc1)c1sc2cccc(F)c2c1Cl	2.9
O=C1CCCN1Cc1ncnn1-c1ccccc1	i

By substructure, the compounds so far containing a thiophene ring, fused or not.
SMILES	H5N1 CPE
N#CCSc1nc2scc(-c3cccs3)c2c(=O)n1CCc1ccccc1	i
COc1ccccc1N1CCN(C(=O)CCNS(=O)(=O)c2ccc(Br)s2)CC1	1.3
CCOc1cccc(NC(=O)C(Cc2cccs2)c2nn[nH]n2)c1 (stereo unspecified)	i
CCOC(=O)C1CCCN(C(=O)c2cc3c(-c4cccc(OC)c4)nn(C)c3s2)C1 (stereo unspecified)	i
CCOC(=O)c1sc2nc(CC(=O)OC)nc(NCc3ccc(Cl)cc3)c2c1C	i
O=C(CNC(=O)c1cccs1)NCC(=O)OCc1ccccc1Cl	0.7
CNc1oc(-c2cccs2)nc1C#N	i
COCc1cc(C)nc2sc(C(=O)OC)c(N)c12	2.8
Cc1c(/C=N/NC(=O)c2sc3ccccc3c2Cl)cnn1C	i
C=CCNC(=S)N1CCN(CCN=CC2=C(O)CC(c3cccs3)CC2=O)CC1 (stereo unspecified)	0.1
Cc1nn(-c2ccc(F)cc2)c2sc(C(=O)OCC(=O)N3CCC(C)CC3)cc12	1.9
COc1ccccc1Nc1ncc(-c2cccs2)s1	i
COc1ccccc1NC(=O)c1c(NC(=O)c2ccco2)sc2c1CCC2	i
NNC(=O)C1CCCn2c1nc1sc3c(c1c2=O)CCCC3 (stereo unspecified)	0.6
O=C(NCCCn1ccnc1)c1sc2cccc(F)c2c1Cl	2.9

High-throughput results: PubChem BioAssay, SRMLSC
